NPYLR7 agonist: activates Aedes aegypti NPYLR7 receptor; activation, % at 10 µM; HEK293T NPYLR7/Galpha15, GCaMP6s calcium fluorescence; 270,000 compounds, 0.15% hits; in the data active means activation above about 40%;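 further: 0% = vehicle and 100% = reference agonist at the receptor; some compounds past the cut are filed as inactive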
NPYLR7 agonist max-min: also measured in NPYLR7 agonist; calls as there; activation, %; measured here: Max-Min RFU normalised activation; some inactives read as strong as hits;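 span of the calcium signal over five minutes; 0% = vehicle and 100% = native peptide agonist; compound fluorescence can raise it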
Active calls of the source: *; & = joins results of further samples. This is a subset, so the mix of outcomes need not match the whole.

smiles	NPYLR7 agonist max-min	NPYLR7 agonist
CCn1cnnc1SCC(=O)Nc1ccc(SC)cc1	2	4
CS(=O)(=O)N1N=C(c2cccs2)CC1c1ccc(Cl)o1 (stereo not drawn)	-1	2
c1ccc(-c2ncn(CCCc3cccnc3)c2C2CC2)cc1	7	15
COc1ccc(-n2nc(-c3ccc(OC)cc3OC)cc2C(=O)NC(Cc2ccccc2)c2ccccc2)cc1 (stereo not drawn)	6	-3
Nc1nnc(-c2ccc(Br)cc2Cl)o1	-21	-16
O=C(NCc1ccccc1F)C(C1CCCC1)N1CCN(C(=O)COCc2ccccc2)CC1 (stereo not drawn)	4	-9
CCCCc1nc(C2CCC(C3CCC(CCC)CC3)CC2)no1 (stereo not drawn)	-8	-2
CC(=O)c1ccc(N2C(=O)C3C4c5ccccc5C(c5ccccc54)C3C2=O)cc1 (stereo not drawn)	-10	-6
COc1ccccc1NP(=O)(Nc1ccccc1OC)Nc1ccccc1OC	6	4
Cc1cccc(C)c1N1C(=O)c2ncccc2C1CC(=O)N1CCN(c2ccc3oc(C(=O)O)cc3c2Cl)CC1 (stereo not drawn)	3	0
CCOC(=O)C(c1cc(C)cc(C)c1)C1C=CC(NC(=O)c2cc(C)oc2C)C1 (stereo not drawn)	11	9
O=C(CCN(Cc1ccccc1)c1nc(-c2ccco2)nc2ccccc12)N1CCN(c2ccccc2F)CC1	13	-4
COc1ccccc1-c1onc(C)c1C(=O)NCCc1ccc(N)cc1	9	16
CCCC(C)(C)C(=O)N1CCC1(C)C(=O)Nc1ccc2c(c1)OCCO2 (stereo not drawn)	2	4
O=C(Nc1cccc(F)c1)Nc1ccnn1C1CCN(C(=O)[C@@H]2C[C@H]2c2ccccc2)CC1	4	6
O=C(OCc1cc(=O)oc2cc3c(cc12)CCC3)c1n[nH]c(=O)c2ccccc12	2	3

Single records, from the list above. Screens in order: NPYLR7 agonist max-min	NPYLR7 agonist
COc1ccc(-n2nc(-c3ccc(OC)cc3OC)cc2C(=O)NC(Cc2ccccc2)c2ccccc2)cc1 (stereo not drawn) as listed: 6	-3
CCCC(C)(C)C(=O)N1CCC1(C)C(=O)Nc1ccc2c(c1)OCCO2 (stereo not drawn) as listed: 2	4
CCn1cnnc1SCC(=O)Nc1ccc(SC)cc1 as listed: 2	4
O=C(NCc1ccccc1F)C(C1CCCC1)N1CCN(C(=O)COCc2ccccc2)CC1 (stereo not drawn) as listed: 4	-9

The listing continues.
smiles	NPYLR7 agonist max-min	NPYLR7 agonist
CC1CCC(C(C)C)C(OC(=O)COC(=O)c2ccc([N+](=O)[O-])o2)C1 (stereo not drawn)	-10	-5
CC1=C(c2ccc(C)cc2)S(=O)(=O)N=C1N1CCN(Cc2ccc3c(c2)OCO3)CC1	0	2
Cc1nc2cccc(C)n2c(=O)c1NC(=O)c1c(F)cccc1Cl	1	3
CCNC(=O)[C@@H]1C[C@@H](N)CN1C(=O)CN1CCN(c2cccc(C)c2)CC1	2	5
Cn1c(=O)[nH]c(=O)c2c1nc(SCCCO)n2CCCc1ccccc1	10	9
CCOc1cc(CN(CC2CCN(C3CCCC3)CC2)CC2CCCO2)ccc1OC (stereo not drawn)	4	11
CCn1c(-c2nccn2CC2CCCCO2)nc2ccccc21 (stereo not drawn)	21	28
O=C(NCc1cccc(Cl)c1)N1CCN(Cc2ccccn2)CC1	4	10

Entries shown so far containing a furan ring, fused or not (5):
smiles	NPYLR7 agonist max-min	NPYLR7 agonist
CS(=O)(=O)N1N=C(c2cccs2)CC1c1ccc(Cl)o1 (stereo not drawn)	-1	2
Cc1cccc(C)c1N1C(=O)c2ncccc2C1CC(=O)N1CCN(c2ccc3oc(C(=O)O)cc3c2Cl)CC1 (stereo not drawn)	3	0
CCOC(=O)C(c1cc(C)cc(C)c1)C1C=CC(NC(=O)c2cc(C)oc2C)C1 (stereo not drawn)	11	9
O=C(CCN(Cc1ccccc1)c1nc(-c2ccco2)nc2ccccc12)N1CCN(c2ccccc2F)CC1	13	-4
CC1CCC(C(C)C)C(OC(=O)COC(=O)c2ccc([N+](=O)[O-])o2)C1 (stereo not drawn)	-10	-5

Later entries
smiles	NPYLR7 agonist max-min	NPYLR7 agonist
CNc1ccc(NC(=O)c2ccc(C)cc2)c2c1C(=O)c1ccccc1C2=O	-1	0
C=CCN1CC(c2nc3ccccc3n2CCCCOc2ccccc2C)CC1=O (stereo not drawn)	9	4
CN(C)C(=O)c1cccc(CCNC(=O)NCC2CC3CCC2C3)c1 (stereo not drawn)	1	1
Cc1ccnc2c1NC(=O)c1cccnc1N2C1CC1	4&-14	-13&-6
COc1cc2c(cc1OC)CN(C1CCCN(C(=O)/C=C/c3ccco3)C1)CC2 (stereo not drawn)	7&-6	7&-3
O=c1cc(N2CCOCC2)oc2c(-c3ccccc3)cccc12	-35	1
CC(C)CCNCC1OCc2ccccc2CO1	-20	-13
Cc1ccc(-n2nc3c(c2N)CSC3)cc1	-17	-13
CCN1CCN(C(c2cccc(F)c2)C2Sc3nc(C)nn3C2=O)CC1 (stereo not drawn)	3	6
Cc1ccc(C)c2c(N=NC(=O)COc3ccc4ccccc4c3)c(O)[nH]c12	-11	-8
COc1ccc(/C=C2\Oc3cc(OCCN4CCCCC4CCO)ccc3C2=O)cc1 (stereo not drawn)	9	5
Cc1cccc(CN(C(=O)c2ccc(F)cc2)C2CCC(NC(=O)C3CCN(C(=O)c4cccc(F)c4)CC3)CC2)c1 (stereo not drawn)	4	-2
Cc1cc(C(=O)N(Cc2cccnc2)c2nc3c(C(C)C)cccc3s2)on1	5	-2
COC(=O)CCC(=O)NCc1ccc(-c2ncc(-c3ccc(F)cc3)[nH]2)cc1	22	11
Cc1cc(C)cc(NS(=O)(=O)c2c(C)n[nH]c2C)c1	6	13
C/C(=C\c1ccccc1)c1nc2ccc(Cl)cn2c1NC1CCCCC1	-2	-7
O=S(=O)(NCCNc1ccc(Nc2cccnc2)nn1)c1ccc(C(F)(F)F)cc1	-1	-1
CCn1nnc2c(Nc3ccc(OC)cc3)ncnc21	13	7
CCN(CC)S(=O)(=O)c1ccc2c(c1)nc(SCc1cc(F)ccc1C)n2C(C)C	2	4
COC(=O)C(=O)C=C(O)c1ccco1	5&36	4&21
CCOc1ccccc1N1CCN(C(=O)CC2C(=O)NCCN2Cc2ccoc2)CC1 (stereo not drawn)	3	5
Cc1nn(CC(=O)Nc2sc3c(c2C(N)=O)CCCC3)c(C)c1[N+](=O)[O-]	-5	0
COc1cccc(CO[C@]2(C(=O)NCCN3CCOCC3)CC(OCc3ccccc3F)[C@H](O)[C@H](O)C2)c1 (stereo partly drawn)	-11	-26
CCC(=O)Nc1ccc(N(C)C)c(CN(C(=O)Nc2cccc(F)c2)C(C)CC)c1 (stereo not drawn)	6	-2
CCCCNC(=O)N1CCCN(C(=O)C(C)N2CCc3sccc3C2c2ccccc2C)CC1 (stereo not drawn)	11	16
CCc1ncc(C(=O)N(C)Cc2ccccc2C(F)(F)F)cn1	2	5
O=C(NCC1CCN(c2nc(Cc3ccc(Cl)cc3)ns2)CC1)C1C[C@H]1c1ccccc1 (stereo partly drawn)	19	17
COc1ccc(OC)c(S(=O)(=O)N[C@H]2CO[C@H]3[C@@H]2OC[C@H]3OC(=O)Nc2ccc(Oc3ccccc3)cc2)c1	-18	-7
CNc1nnc(SCc2cccc(Br)c2)s1	-8	-5
CCS(=O)(=O)N(CC(C)C)c1ccc(C(C)=O)cc1	4	-1
c1ccc(-n2nnnc2Cc2nnnn2-c2ccccc2)cc1	0	5
Cc1ccc(N=Nc2c(-c3ccc([N+](=O)[O-])cc3)[nH]n(-c3ccccc3)c2=O)cc1[N+](=O)[O-]	-2	-5
CCCCC(=O)Nc1ccc(C(=O)NC2CCCN(C(=O)C3CC3)C2)cc1 (stereo not drawn)	9	16
CCOC(=O)c1ccc2c(c1)nc(SCc1c(F)ccc(F)c1Cl)n2Cc1ccco1	-5	0
O=C1NC(=S)N/C1=C\c1ccccc1OCc1ccc([N+](=O)[O-])cc1	13	10
CCCCCn1c(=NC(=O)C=CC=CSC)c(C#N)cc2c(=O)n3cccc(C)c3nc21	-1	1
COCC(=O)N1CC(=O)N(Cc2ccc(C)cc2)CC(O)C1 (stereo not drawn)	18	19
CCCCN(Cn1c(=S)oc2ccccc21)C1CCS(=O)(=O)C1 (stereo not drawn)	-4	1
COc1cccc(CC(=O)Nc2nnc(C3CC3)s2)c1	-12	-10
CC1=NC2(CCN(C3CCN(C(=O)c4cccs4)CC3)CC2)C(=O)N1	-10	-1
CC(C)CN(C(=O)CSc1nncn1C)C1CCS(=O)(=O)C1 (stereo not drawn)	15	11
CCC(NC(=O)C(C)Sc1ccccn1)c1n[nH]c(C)n1 (stereo not drawn)	-3	0
COCCN(Cc1c(-c2ccccc2)noc1N1CCN(C)CC1)C(=O)c1cccs1	15	14
Cc1ccc(CN2CCN(Cc3cccc4c3OCO4)CC2CCO)o1 (stereo not drawn)	0	9
O[C@H]1[C@H](O)[C@@H](O)C2OC[C@H]1O2	-19	-10
CCN(CC)C(=O)Cn1cc(SCC(=O)Nc2ccc(NC(C)=O)cc2)c2ccccc21	-14	-8
FC(F)(F)c1cccc(-c2ccn[nH]2)n1	-9	5
C#CCn1nc(C)c2cnn(-c3ccccc3)c2c1=O	5	8
CC1(C(=O)Nc2nc(-c3ccc(F)c(F)c3)cs2)Cc2ccccc2C(=O)O1 (stereo not drawn)	-10	-8
Cc1ccc(C(=O)NCc2sccc2C)cc1N1CCNC1=O	-7	-4
O=c1oc2c(-c3ccc(Br)cc3)cc(O)cc2s1	-5	0
CCN(CC)c1nc2c(s1)C(=O)CC(C)(C)C2	-6	-8
c1cnc(N2CCN(c3ncnc4c3nc3n4CCCCC3)CC2)nc1	-2	3
CCc1ccsc1C(=O)Nc1ccc(OC)c(N2CCCC2=O)c1	3	6
Cc1c(C)n2c3c(=O)n(C)c(=O)n(C)c3nc2n1C(C)c1ccccc1 (stereo not drawn)	-1	5
O=C(Nc1nc(NS(=O)(=O)c2ccccc2)n[nH]1)C1CC=CCC1 (stereo not drawn)	5	8

(list continues)
smiles	NPYLR7 agonist max-min	NPYLR7 agonist
O=C(CSc1nnc(NC2CC2)s1)Nc1ccc(N2CCCC2)cc1	6	8
CC1CN(C(=O)C2CCN(S(C)(=O)=O)CC2)C(C)CO1 (stereo not drawn)	0	2
CC(C)n1c(-c2ccccc2)csc1=Nc1ccccc1	1	8
Cc1cc(C)n(CCC(=O)NCc2cn[nH]c2-c2ccc(Cl)cc2)c(=O)n1	-10	-8
CC(=O)c1c(C)[nH]c(C(=O)COC(=O)[C@@H]2CCCN2C=CC(=O)C(F)(F)F)c1C	2	3
CCOc1ccc(CN2CCN(Cc3nc4sccc4c(=O)[nH]3)CC2)cc1	0	2
O=C(CN1CCCCCCC1=O)Nc1nc2ccccc2[nH]1	4	4
COc1ccc(-c2cc(C(=O)Nc3ccc(C)c(C)c3)n3nc(C(C)(C)C)cc3n2)cc1	4	-4
COCCCN(Cc1c(C)nn(-c2cccc(F)c2)c1N1CCN(C)CC1)C(=O)c1cc(C(F)(F)F)cc(C(F)(F)F)c1	11	5
CCc1cccc(NC(=O)N(CCCOC)Cc2nc(C(=O)OC)cs2)c1	22	16
CN(C)c1ccc(NC(=O)c2cc(C3CC3)n(C3CCS(=O)(=O)C3)n2)cc1 (stereo not drawn)	1	4
CN1CC(=O)N2C[C@@H](NC(=O)CCN3CCCCCC3=O)C[C@H]2C1=O	6	7
CC(C)(O)C#Cc1cccc(C(=O)NC2CCCCNC2=O)c1 (stereo not drawn)	11	13
CCc1ccc(C2C(C#N)=C(C)NC3=C2C(=O)CC(c2ccccc2)C3)cc1 (stereo not drawn)	-4	-1
CC(NC(=O)Cc1ccc(N2CCCC2=O)cc1)c1cccs1 (stereo not drawn)	-4	-1
CCCCCc1ccc(C(=O)N2CCC3(CC2)C(=O)N(CC(=O)Nc2cccc(Cl)c2)CN3c2ccccc2)cc1	19	13
CCc1cccc2c(C(CC(=O)NC(C)c3ccccc3)c3cccc([N+](=O)[O-])c3)c[nH]c12 (stereo not drawn)	-2	-2
COCCCN1C(=O)c2cccc3c([N+](=O)[O-])ccc(c23)C1=O	-11	-3
CCCn1cc(NC(=O)C2COc3ccc(Cl)cc3C2)ccc1=O (stereo not drawn)	0	4
O=C(c1cnccn1)N1CCOC(COCc2ccc(F)cc2Cl)C1 (stereo not drawn)	26	24
CCS(=O)(=O)Nc1cccc(C(=O)NC23CC4CC(CC(C4)C2)C3)c1	7	7
CCC(CNS(=O)(=O)N1CCS(=O)(=O)CC1)c1ccccc1 (stereo not drawn)	-2	-1
Cc1ncsc1C(=O)N1CC[C@@H](c2ccc3ccccc3c2)[C@H](O)C1	1	5
COC(=O)[C@@H]1CCCN1Cc1c(C(=O)N(C)Cc2ccccc2)nc2ccccn12	-1&-14	0&-10
O=S(=O)(c1ccc(OC(F)(F)F)cc1)N1CCC(c2nc(-c3ccccc3F)no2)CC1	-14	-7
Cc1ccc2c(=O)c(C(=O)c3ccccc3)coc2c1	6	10
CCN(C/C=C/c1ccccc1)C(=O)c1ccc(C#CC(C)(C)O)cc1	-9	3
Cc1nc(SCc2cccc(C(=O)Nc3ccc(F)cc3)c2)nc(N2CCN(Cc3ccccc3)CC2)c1C	4	-1
CC1(C(=O)NCc2cccs2)CCN1C(=O)Cc1ccsc1 (stereo not drawn)	8	10
Cc1cc(-n2ccnc2)n2nc(C)c(-c3ccc(Cl)cc3)c2n1	19	-1
COc1ccccc1CCNC(=O)C(=O)Nc1ccc2c(c1)N(C(=O)C(C)C)CCC2	6	12
CC1CN(c2cc(Oc3ccc(Cl)cc3F)ncn2)CCN1C(=O)C1CCC1 (stereo not drawn)	8	7
